Source: PubChem
p53 nuclei = p53 stabilisation in HPV-positive human cells, imaging, p53-positive nuclei imaging, 24 h, 48 h (AID 1508601); p53-positive nuclei imaging, 48 h; stronger effect = higher value; some inactives read as strong as hits; p53-positive nuclei, normalised, % at 11 µM unless noted; hit rate 1% among 5,700;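 active means mean of two plates above 50% at 24 h or at 48 h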;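 further: HPV-positive HeLa cells with a fluorescent p53 stability reporter; 0% = vehicle and 100% = proteasome inhibitor control; doses worked out from stocks diluted about 900-fold with the highest of each compound shown; many of its hits are not listed in these tables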
p53 nuclei cells 24 h = further read-out of p53 nuclei, marked with its call; nuclei count, normalised, %; measured here: cell number at 24 h;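 100% = vehicle wells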
p53 nuclei p53 24 h = second read-out of p53 nuclei, no call of its own (marks repeat the call); p53-positive nuclei, normalised, %; measured here: p53 positive nuclei at 24 h;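 0% = vehicle and 100% = positive control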
p53 nuclei cells 48 h = second read-out of p53 nuclei, no call of its own (marks repeat the call); nuclei count, normalised, %; measured here: cell number at 48 h;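 100% = vehicle wells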
Starred values were filed as active, the others as inactive; [ ] = remark or other dose. This is a subset; the hit share may differ from the screen's.

Short keys – A = p53 nuclei; B = p53 nuclei cells 24 h; C = p53 nuclei p53 24 h; D = p53 nuclei cells 48 h
> Cc1ccc(NC(=O)c2ccc(CN3CCN(C)CC3)cc2)cc1Nc1nc(-c2cccnc2)cs1
  A: 0.2 | B: 100 | C: 0.2 | D: 106

> CC(C)CC(N)=O
  A: -0.1[3.7 µM] | B: 107 | C: -0.2 | D: 100

> C[C@]12C=CC(=O)C=C1CC[C@H]1[C@@H]3CC(O)[C@@](O)(C(=O)CO)[C@@]3(C)CC(O)[C@]12F (some centres undefined)
  A: -0.2[3.7 µM] | B: 113 | C: -0.5 | D: 105

> OCc1c[nH]c2ccccc12
  A: 0.0 | B: 113 | C: 0.1 | D: 106

> CC1(C)O[C@@H]2C[C@H]3[C@@H]4CCC5=CC(=O)C=C[C@]5(C)[C@@H]4C(O)C[C@]3(C)[C@@]2(C(=O)CO)O1 (some centres undefined)
  A: 0.0[3.7 µM] | B: 107 | C: -0.3 | D: 105

> Nc1cccc2c1CN(C1CCC(=O)NC1=O)C2=O (centres undefined)
  A: -0.1 | B: 103 | C: 0.1 | D: 102

> NC1=N[C@@]2(c3cc(NC(=O)c4ccc(F)cn4)ccc3F)COC[C@@H]2CS1
  A: -0.1[3.7 µM] | B: 117 | C: -0.2 | D: 110

> O=c1c(O)c(-c2ccc(O)c(O)c2)oc2cc(O)cc(O)c12
  A: -0.2[3.7 µM] | B: 108 | C: -0.3 | D: 107

> Fc1cc(-c2ccnc(Nc3ccc(-n4cnc(N5CCOCC5)n4)cc3)n2)cc(N2CCOCC2)c1
  A: 38 | B: 36 | C: 16 | D: 22

> COC1CC2CCC(C)[C@@](O)(O2)C(=O)C(=O)N2CCCCC2C(=O)OC(C(C)CC2CCC(O)C(OC)C2)CC(=O)C(C)C=C(C)C(O)C(OC)C(=O)C(C)CC(C)C=CC=CC=C1C (some centres undefined)
  A: -0.6[3.7 µM] | B: 98 | C: -0.3 | D: 88

> CCC=CC[C@@H]1C(=O)CC[C@H]1CC(=O)OC
  A: -0.1 | B: 102 | C: -0.1 | D: 99

> CNCc1ccc(C)c(NC(=O)c2ccc(Nc3nc(-c4ccccc4)c4ccccc4n3)cc2)c1
  A: 0.0[3.7 µM] | B: 108 | C: -0.3 | D: 104

> O=C(NC(CO)C(O)c1ccc([N+](=O)[O-])cc1)C(Cl)Cl (centres undefined)
  A: -0.1[3.7 µM] | B: 110 | C: -0.2 | D: 111

> CC(C)NCC(O)COc1ccc(CCOCC2CC2)cc1 (centres undefined)
  A: -0.1[3.7 µM] | B: 102 | C: -0.2 | D: 103

> Cc1ccnc(NS(=O)(=O)c2ccc(N)cc2)n1
  A: -0.1[3.7 µM] | B: 113 | C: -0.2 | D: 105

> Nc1c2c(nc3ccccc13)CCCC2
  A: 0.0 | B: 96 | C: -0.1 | D: 105

> CC1OC(OC2C(CO)OC(OC3C(CO)OC(O)C(O)C3O)C(O)C2O)C(O)C(O)C1NC1C=C(CO)C(O)C(O)C1O (centres undefined)
  A: -0.6[3.7 µM] | B: 92 | C: -0.3 | D: 91

> COc1ccc(-c2ccc3ncc4c(c3c2)n(-c2ccc(N3CCNCC3)c(C(F)(F)F)c2)c(=O)n4C)cn1
  A: -0.1 | B: 49 | C: 0.0 | D: 37

> CCNC(=O)c1[nH]nc(-c2cc(Cl)c(O)cc2O)c1-c1ccc(OC)cc1
  A: -0.2[3.7 µM] | B: 53 | C: -0.4 | D: 39

> CN(C)CCN1C(=O)c2cccc3cc(N)cc(c23)C1=O
  A: -0.4[3.7 µM] | B: 45 | C: -0.2 | D: 36

> O=C(OC1C[N+]2(CCCOc3ccccc3)CCC1CC2)C(O)(c1cccs1)c1cccs1 (centres undefined)
  A: -0.1[3.7 µM] | B: 117 | C: -0.2 | D: 108

> O=c1c2ccccc2nc2n1CCc1c-2[nH]c2ccccc12
  A: -0.2[3.7 µM] | B: 107 | C: -0.3 | D: 104

> CC1=C(C)C(=O)C(C(CCCCCC(=O)O)c2ccccc2)=C(C)C1=O (centres undefined)
  A: -0.1 | B: 103 | C: -0.1 | D: 98

> N=c1ccn2c(n1)OC1C(O)C(CO)OC12 (centres undefined)
  A: 0.1[3.7 µM] | B: 61 | C: -0.3 | D: 52

> CC(=O)O[C@@]1(C(C)=O)CC[C@H]2[C@@H]3CC(C)C4=CC(=O)CC[C@]4(C)[C@@H]3CC[C@@]21C (some centres undefined)
  A: -0.3[3.7 µM] | B: 112 | C: -0.3 | D: 100

Continued; it opens with the 7 that closed the last part.
Short keys – A = p53 nuclei; B = p53 nuclei cells 24 h; C = p53 nuclei p53 24 h; D = p53 nuclei cells 48 h
> CCNC(=O)c1[nH]nc(-c2cc(Cl)c(O)cc2O)c1-c1ccc(OC)cc1
  A: -0.2[3.7 µM] | B: 53 | C: -0.4 | D: 39

> CN(C)CCN1C(=O)c2cccc3cc(N)cc(c23)C1=O
  A: -0.4[3.7 µM] | B: 45 | C: -0.2 | D: 36

> O=C(OC1C[N+]2(CCCOc3ccccc3)CCC1CC2)C(O)(c1cccs1)c1cccs1 (centres undefined)
  A: -0.1[3.7 µM] | B: 117 | C: -0.2 | D: 108

> O=c1c2ccccc2nc2n1CCc1c-2[nH]c2ccccc12
  A: -0.2[3.7 µM] | B: 107 | C: -0.3 | D: 104

> CC1=C(C)C(=O)C(C(CCCCCC(=O)O)c2ccccc2)=C(C)C1=O (centres undefined)
  A: -0.1 | B: 103 | C: -0.1 | D: 98

> N=c1ccn2c(n1)OC1C(O)C(CO)OC12 (centres undefined)
  A: 0.1[3.7 µM] | B: 61 | C: -0.3 | D: 52

> CC(=O)O[C@@]1(C(C)=O)CC[C@H]2[C@@H]3CC(C)C4=CC(=O)CC[C@]4(C)[C@@H]3CC[C@@]21C (some centres undefined)
  A: -0.3[3.7 µM] | B: 112 | C: -0.3 | D: 100

> CC(=O)NC(Cc1ccc2ccccc2c1)C(=O)NC(Cc1ccc(Cl)cc1)C(=O)NC(Cc1cccnc1)C(=O)NC(CO)C(=O)NC(Cc1ccc(O)cc1)C(=O)NC(CCCNC(N)=O)C(=O)NC(CC(C)C)C(=O)NC(CCCN=C(N)N)C(=O)N1CCCC1C(=O)NC(C)C(N)=O (centres undefined)
  A: -0.1 | B: 115 | C: 0.0 | D: 113

> Cc1ccccc1C(C(=O)NC1CCCC1)N(C(=O)Cn1cnc2ccccc21)c1cccc(F)c1 (centres undefined)
  A: -0.2 | B: 104 | C: -0.2 | D: 105

> COC1CCN(C(=O)c2cc(Cc3n[nH]c(=O)c4ccccc34)ccc2F)CC1
  A: -0.1[3.7 µM] | B: 97 | C: 0.3 | D: 98

> C#C[C@@]1(O)CC[C@H]2[C@@H]3CCc4cc(O)ccc4[C@@H]3CC[C@@]21C
  A: 16[3.7 µM] | B: 81 | C: 2.2 | D: 67

> CC(N)=NCCCCC(N)C(=O)O (centres undefined)
  A: 0.0 | B: 113 | C: -0.1 | D: 110

> COC(=O)C1=C(C)NC(C)=C(C(=O)OCC(C)C)C1c1ccccc1[N+](=O)[O-] (centres undefined)
  A: 0.1 | B: 109 | C: -0.1 | D: 111

> CC(NC(=O)C(O)C(C)C)C(=O)NC1C(=O)N(C)CCc2ccccc21 (centres undefined)
  A: -0.1[3.7 µM] | B: 75 | C: -0.3 | D: 91

> CCOC(=O)OC(C)OC1=C(C(=O)Nc2ccccn2)N(C)S(=O)(=O)c2ccccc21 (centres undefined)
  A: -0.2[3.7 µM] | B: 111 | C: -0.2 | D: 104

> O=C1NCCCc2c1oc1ccc(O)cc21
  A: 0.3 | B: 89 | C: 0.1 | D: 99

> CC(C)CC(NC(=O)NC(CCC(=O)O)C(=O)O)C(=O)O (centres undefined)
  A: 0.3 | B: 102 | C: 0.3 | D: 104

> CN1CCN(c2nc(C3=C(c4c[nH]c5ccccc45)C(=O)NC3=O)c3ccccc3n2)CC1
  A: -0.2 | B: 100 | C: -0.2 | D: 108

> CC=C1C2C=C(C)C[C@]1(N)c1ccc(=O)[nH]c1C2
  A: -0.1 | B: 104 | C: -0.1 | D: 101

> Cc1cn(-c2cc(C(=O)Nc3ccc(C)c(NC(=O)c4ccno4)c3)cc(C(F)(F)F)c2)cn1
  A: -0.4 | B: 68 | C: -0.1 | D: 64

> COC(=O)Nc1ccc(-c2nc(N3CCOCC3)c3cnn(C4CCN(C(=O)OC)CC4)c3n2)cc1
  A: -0.6[3.7 µM] | B: 82 | C: -0.3 | D: 84

> O=C(O)c1cccc(-c2noc(-c3ccccc3F)n2)c1
  A: -0.3[3.7 µM] | B: 110 | C: -0.3 | D: 106

> CNC(=O)c1ccc2cc([C@@]3(O)CCn4cncc43)ccc2c1
  A: -0.1 | B: 114 | C: -0.1 | D: 107

> O=C(NCCN1CCC(n2c(=O)[nH]c3ccccc32)CC1)c1cc2cc(F)ccc2[nH]1
  A: -0.1 | B: 117 | C: -0.2 | D: 111

> Cc1cc(C=C2C(=O)C=CC2=O)cc(C)c1O
  A: 31 | B: 49 | C: 33 | D: 37

> Cc1cccc(-c2[nH]c(CNc3ccccc3F)nc2-c2ccc3ncnn3c2)n1
  A: -0.1 | B: 92 | C: -0.2 | D: 89

> O=c1cc(N2CCOCC2)oc2c(-c3ccccc3)cccc12
  A: -0.6[3.7 µM] | B: 114 | C: -0.2 | D: 102

> Cc1ccnc2c1NC(=O)c1cccnc1N2C1CC1
  A: -0.1[3.7 µM] | B: 106 | C: -0.2 | D: 107

> N#Cc1ccnc(N2C(=O)CCC2C(=O)N(c2cncc(F)c2)C(C(=O)NC2CC(F)(F)C2)c2ccccc2Cl)c1 (centres undefined)
  A: 0.0 | B: 100 | C: 0.0 | D: 107

> CS(=O)(=O)Nc1ccc([N+](=O)[O-])cc1Oc1ccccc1
  A: 0.0[3.7 µM] | B: 104 | C: -0.2 | D: 101

> CC(=O)c1ccc2c(c1)Nc1ccccc1S2
  A: 32 | B: 84 | C: 2.8 | D: 54

> CCCN1CC(CSC)C[C@@H]2c3cccc4[nH]cc(c34)C[C@H]21 (some centres undefined)
  A: -0.2[3.7 µM] | B: 101 | C: -0.3 | D: 99

Profiles from above. Screens in order: p53 nuclei, p53 nuclei cells 24 h, p53 nuclei p53 24 h, p53 nuclei cells 48 h
CCC=CC[C@@H]1C(=O)CC[C@H]1CC(=O)OC across the screens: -0.1, 102, -0.1, 99
COC(=O)Nc1ccc(-c2nc(N3CCOCC3)c3cnn(C4CCN(C(=O)OC)CC4)c3n2)cc1 across the screens: -0.6[3.7 µM], 82, -0.3, 84
CC(C)CC(N)=O across the screens: -0.1[3.7 µM], 107, -0.2, 100
Fc1cc(-c2ccnc(Nc3ccc(-n4cnc(N5CCOCC5)n4)cc3)n2)cc(N2CCOCC2)c1 across the screens: 38, 36, 16, 22

Next part.
Short keys – A = p53 nuclei; B = p53 nuclei cells 24 h; C = p53 nuclei p53 24 h; D = p53 nuclei cells 48 h
> CC1(C)OC2CO[C@@]3(COS(N)(=O)=O)OC(C)(C)OC3C2O1 (some centres undefined)
  A: -0.1 | B: 100 | C: 0.0 | D: 103

> CCC(C)N(C)C(=O)c1cc2ccccc2c(-c2ccccc2Cl)n1 (centres undefined)
  A: 0.1 | B: 126 | C: 0.1 | D: 117

> Cc1c(OCC(F)(F)F)ccnc1C[S@@](=O)c1nc2ccccc2[nH]1
  A: -0.1[3.7 µM] | B: 105 | C: -0.3 | D: 103

> CC(=O)O[C@@]1(C(C)=O)CC[C@H]2[C@@H]3CCC4=CC(=O)CCC4=C3C(c3ccc(N(C)C)cc3)C[C@@]21C (some centres undefined)
  A: -0.1[3.7 µM] | B: 110 | C: -0.5 | D: 104

> Cc1cc(N2CCOCC2)cc2[nH]c(-c3c(NCC(O)c4cccc(Cl)c4)cc[nH]c3=O)nc12 (centres undefined)
  A: -0.2 | B: 80 | C: -0.1 | D: 90

> CNC(=O)c1ccc2cc(C3(O)CCn4cncc43)ccc2c1 (centres undefined)
  A: -0.1 | B: 103 | C: -0.1 | D: 112

> CCN(CC)CCNC(=O)c1c(C)[nH]c(C=C2C(=O)Nc3ccc(F)cc32)c1C
  A: 0.5 | B: 39 | C: 0.3 | D: 28

> CN(C)C1CCc2[nH]c3ccc(NC(=O)c4ccc(F)cc4)cc3c2C1 (centres undefined)
  A: -0.1 | B: 117 | C: -0.1 | D: 112

> CCCCc1nc(Cl)c(CO)n1Cc1ccc(-c2ccccc2-c2nn[nH]n2)cc1
  A: -0.4[3.7 µM] | B: 119 | C: -0.5 | D: 112

> CCC(C)(C)c1ccc(CC(C)CN2CC(C)OC(C)C2)cc1 (centres undefined)
  A: 0.0[3.7 µM] | B: 100 | C: -0.2 | D: 105

> Cc1cnc(C(=O)O)c[n+]1[O-]
  A: -0.1[3.7 µM] | B: 74 | C: -0.3 | D: 86

> CC(NC(=O)C(C#N)=Cc1cccc(Br)n1)c1ccccc1 (centres undefined)
  A: 0.1[3.7 µM] | B: 96 | C: 0.0 | D: 100

> CCN1CCN(C(=O)NC(C(=O)NC2C(=O)N3C(C(=O)O)=C(CSc4nnnn4C)CS[C@H]23)c2ccc(O)cc2)C(=O)C1=O (some centres undefined)
  A: -0.3[3.7 µM] | B: 108 | C: -0.5 | D: 105

> COc1ccc(N(C(=O)Nc2c(C)cccc2C)c2cc(Nc3ccc(N4CCN(C)CC4)cc3OC)ncn2)c(OC)c1
  A: 0.1 | B: 66 | C: -0.1 | D: 66

> O=C(c1ccc(F)cc1)N1CCCC(c2nc(-c3ccc(F)cc3)no2)C1 (centres undefined)
  A: -0.3[3.7 µM] | B: 86 | C: -0.1 | D: 90

> Cc1noc(-c2ccc(CSCCC(=O)O)cc2)c1NC(=O)OC(C)c1ccccc1Cl (centres undefined)
  A: -0.6[3.7 µM] | B: 112 | C: -0.2 | D: 108

> Cc1cccc(Nc2nc(-c3ccncc3)cs2)c1
  A: -0.5[3.7 µM] | B: 99 | C: -0.3 | D: 106

> O=C(Nc1ccc(S(=O)(=O)Nc2ccccc2Cl)c(Cl)c1)c1ccccn1
  A: -0.1 | B: 106 | C: -0.1 | D: 100
